KCNQ2 pot: KCNQ2 (rat) channel potentiation | O88943 | CHO-K1 KCNQ2, FluxOR thallium flux fluorescence; stronger effect = higher value | B-score at 10 µM | 310,000 compounds, 0.54% hits;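 active = fluorescence ratio B-score at least 3 SD of library B-scores, with initial fluorescence B-score within 3 SD, cut at about 5.3 in these data; same plate scores as AID 2156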;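 also: B-score of peak minus minimum over baseline fluorescence ratio after K+ and Tl+ stimulus; positive B-score means potentiation of KCNQ2 with more thallium influx and brighter signal; only the inactives scoring about 0 or higher are listed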
Target sequence (O88943 whole entry, looked up): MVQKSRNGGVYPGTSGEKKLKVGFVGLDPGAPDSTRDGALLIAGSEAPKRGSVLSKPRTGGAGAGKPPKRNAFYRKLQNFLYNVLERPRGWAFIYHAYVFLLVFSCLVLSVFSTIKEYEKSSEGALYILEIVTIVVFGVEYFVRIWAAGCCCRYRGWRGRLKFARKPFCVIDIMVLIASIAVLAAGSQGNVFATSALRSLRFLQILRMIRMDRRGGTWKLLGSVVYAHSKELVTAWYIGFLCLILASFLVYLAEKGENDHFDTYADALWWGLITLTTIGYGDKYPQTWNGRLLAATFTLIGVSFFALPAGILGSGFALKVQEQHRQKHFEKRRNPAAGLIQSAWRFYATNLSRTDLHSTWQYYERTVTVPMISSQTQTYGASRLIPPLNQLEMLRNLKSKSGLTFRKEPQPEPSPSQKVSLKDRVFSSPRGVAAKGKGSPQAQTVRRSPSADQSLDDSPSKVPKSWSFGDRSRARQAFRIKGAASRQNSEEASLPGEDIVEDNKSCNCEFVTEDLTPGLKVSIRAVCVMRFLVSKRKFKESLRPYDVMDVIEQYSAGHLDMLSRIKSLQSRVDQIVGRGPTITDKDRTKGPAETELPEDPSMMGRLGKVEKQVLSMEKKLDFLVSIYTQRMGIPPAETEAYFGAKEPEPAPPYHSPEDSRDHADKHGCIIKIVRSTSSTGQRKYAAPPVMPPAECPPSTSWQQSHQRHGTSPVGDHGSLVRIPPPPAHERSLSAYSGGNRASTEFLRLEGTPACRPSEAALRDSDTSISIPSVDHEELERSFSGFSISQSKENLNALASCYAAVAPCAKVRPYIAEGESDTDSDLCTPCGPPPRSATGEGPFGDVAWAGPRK
KCNQ2 pot baseline: second read-out of KCNQ2 pot, no call of its own (marks repeat the call); B-score; compound at 10 µM; measured here: initial fluorescence intensity artifact check;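 brightness before thallium and not channel activity; 0 = typical well and far values either way flag optical interference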
Starred values were filed as active, the others as inactive. Some of the compounds tested; count on the stated rates, not on these rows.

SMILES	KCNQ2 pot	KCNQ2 pot baseline
O=C(O)c1ccccc1C(=O)Nc1n[nH]c(=S)s1	1.2	-0.47
Cc1ccc(N2C(=O)CC(Sc3ccccc3C(=O)O)C2=O)cc1C (stereo unspecified)	0.5	-0.72
Cc1cc(C)c(S(=O)(=O)N(C)Cc2cnn(C)c2)c(C)c1	0.93	0.62
COc1ccccc1-c1cc(C(=O)Nc2cccnc2Cl)no1	0.13	-0.99
O=[N+]([O-])c1ccc(CSc2nc3ncc(Br)cc3[nH]2)cc1	0.27	-0.09
C[C@H](N)c1nnc(SCc2ccc(Cl)cc2Cl)o1	0.7	-0.49
Nc1nc(SCC(=O)Nc2ccc3c(c2)CCC3)n[nH]1	0.78	1.8
COc1cccc(N2C(=O)CC(NNc3nc4ccccc4s3)C2=O)c1 (stereo unspecified)	0.5	0.87
Cc1ccc(-n2[nH]c(=O)c3cccnc32)cc1	0.23	-3
Cc1noc(C)c1COC(=O)CCOc1ccccc1	1.1	0.53
O=C(NNC(=O)c1ccc(-n2cncn2)c([N+](=O)[O-])c1)c1ccc(Cl)cc1	0.68	-0.89
Cc1cccc(C)c1NC(=S)NCc1ccncc1	0.07	-0.93
CCOc1ccc(OCC)c(NS(=O)(=O)c2cn(C)cn2)c1	0.67	0.03
COc1ccc(-n2c(SCC(=O)Nc3sc4c(c3C#N)CCCC4)nnc2-c2ccc(O)cc2)cc1	1	-0.31
Cc1nnc(SCC(=O)Nc2nc3c(s2)CC(C)CC3)s1 (stereo unspecified)	0.32	0.18
COc1ccc(OCC(=O)NCCCn2ccnc2)cc1	0.09	0.08
O=c1c2ccccc2nc(COc2ccccc2)n1/N=C/c1cc([N+](=O)[O-])ccc1O	1	-0.03
CC(C)(C)N(Cc1ccccc1)C(=O)CSc1ncn[nH]1	1.9	-0.28
CCOC(=O)C1=C(C)NC(C)=C(C(=O)OCC)C1C1=COCCO1	1.9	0
CC(C)c1ccccc1NC(=O)Nc1ccc(F)cc1F	0.23	-0.93
Cn1nc(C(=O)Nc2nc3ccc(S(C)(=O)=O)cc3s2)ccc1=O	1.5	0.55
CSc1ccc(C(=O)C2CCCN(Cc3cccn3-c3cccnc3)C2)cc1 (stereo unspecified)	0.35	0.42
N#CC1(NC(=O)CSc2nnc(COc3ccccc3F)n2N)CCCCC1	1.3	-3.3
Cc1ccc(Cn2c(Sc3nnc(C)s3)nc3c2c(=O)[nH]c(=O)n3C)cc1	0.02	1.1
Nc1nonc1-n1nnc(C(=O)N/N=C/c2ccccc2F)c1-c1cccs1	1.9	1
Cc1c(NC(=O)c2ccc(Cl)nc2)cccc1-c1nc2cccnc2s1	2.2	-1.8
CCOc1ccc(N(CC(=O)NCc2ccc(OC)cc2)S(=O)(=O)c2c(C)[nH]c(=O)[nH]c2=O)cc1	0.87	2.2
CC(C)n1cc(C(=O)N2CCCC(Nc3ccc(F)c(F)c3)C2)cn1 (stereo unspecified)	0.21	0.42
CCOC(=O)C1=C(C)Nc2ccccc2N=C1NC(=O)CCCN1C(=O)c2ccccc2C1=O	1.5	-0.75
O=C(O)C1CN(C(=O)c2cccc(Br)c2)C1	0.07	0.19
Cc1nn(-c2ccccc2)c(Cl)c1/C=N/NC(=O)c1ccncc1	0.25	-0.71
CCN(CC)S(=O)(=O)c1ccc(OC)c(NC(=O)C(Cc2ccccc2)N2C(=O)c3ccccc3C2=O)c1 (stereo unspecified)	0.73	-0.78
CC1CCN(CC(=O)NC(=O)NCc2ccccc2)CC1	0.4	-3.2
Cc1c(C(=O)NNC(=O)c2ccccc2O)oc2ccc(Br)cc12	0.2	-3
Cn1c(=O)c2c(nc(NCCOc3ccc(F)cc3)n2C)n(C)c1=O	0.61	-1.6
CC1CCCCC1NC(=O)c1nn(C)c(=O)c2ccccc12 (stereo unspecified)	0.57	-0.76
COc1ccc(CNC(=O)C(=O)c2cn(CC(=O)N3CCCC3)c3ccccc23)cc1	0.91	-0.7
Cc1nc(NC(=O)c2ccccc2)sc1-c1csc(Nc2ccc(C(=O)O)cc2)n1	1.5	-0.06
O=[N+]([O-])c1ccc2c(c1)/C(=N\O)c1ccccc1-2	0.26	0.54
O=C1C(O)CC2c3ccccc3CC3(CCCC3)N12 (stereo unspecified)	1.5	-1.4
COc1ccc2c(c1)c(CC(=O)OCC(=O)N(C)C)c(C)n2C(=O)c1ccc(Cl)cc1	2	0.19
CCNC(=O)COc1ccc(CC)cc1	2.2	-2.1
CC/C(C)=N\NC(=O)CNC(=O)c1ccc(Cl)cc1Cl	1.2	-1.5
COc1ccc(OC)c(NC(=O)c2ccc(-n3cccn3)nc2)c1	0.21	-0.8
O=C(CNS(=O)(=O)c1ccccc1)NCc1cccnc1	0.73	0.01

Shown in markdown: six of the compounds above.
| Compound | KCNQ2 pot | KCNQ2 pot baseline |
| --- | --- | --- |
| CCN(CC)S(=O)(=O)c1ccc(OC)c(NC(=O)C(Cc2ccccc2)N2C(=O)c3ccccc3C2=O)c1 (stereo unspecified) | 0.73 | -0.78 |
| CC1CCN(CC(=O)NC(=O)NCc2ccccc2)CC1 | 0.4 | -3.2 |
| Cc1c(C(=O)NNC(=O)c2ccccc2O)oc2ccc(Br)cc12 | 0.2 | -3 |
| Cn1c(=O)c2c(nc(NCCOc3ccc(F)cc3)n2C)n(C)c1=O | 0.61 | -1.6 |
| CC1CCCCC1NC(=O)c1nn(C)c(=O)c2ccccc12 (stereo unspecified) | 0.57 | -0.76 |
| COc1ccc(CNC(=O)C(=O)c2cn(CC(=O)N3CCCC3)c3ccccc23)cc1 | 0.91 | -0.7 |

The list goes on:
SMILES	KCNQ2 pot	KCNQ2 pot baseline
O=C1N[C@@H](Cc2ccccc2)[C@@H](c2ccco2)O1	0.56	0.04
COc1cccc(N=Nc2c(N)[nH]n3c(=O)c4c(nc23)CCCC4)c1	2.5	-0.79
COc1ccc(C(=O)CN2C(=O)c3ccccc3C2=O)cc1	0.27	-0.17
COc1ccc(-c2n[nH]c(=S)n2/N=C/c2cccn2C)cc1	1.1	0.33
O=C(COc1ccc(Cl)cc1)N1CCCC1	1.5	0.77
Cc1ncc(CN2CCCCC2C(=O)Nc2ccc(Oc3ccccc3)nc2)cn1 (stereo unspecified)	0.05	-1
O=C(CCS(=O)(=O)c1ccc2c(c1)NC(=O)CO2)NCc1ccccc1	1.3	0.34
CCn1c(SCC(=O)Nc2nccs2)nnc1-c1ccco1	0.92	1.4
CC(NC(=O)c1cn(C)c2ccc(S(=O)(=O)N3CCCC3)cc2c1=O)c1ccccc1 (stereo unspecified)	0.89	-0.91
CCNC(=O)CSc1nc2ccccc2c(=O)n1OC	0.37	1.1
Cc1ccccc1OCCCN1CCCC1	0.63	-1
Cc1ccnc2ccc(SC(F)(F)F)cc12	1.9	-0.6
Cc1c(C(=O)N/N=C/c2ccccn2)nnn1-c1nonc1N	1.4	-0.18
CCCC(CCC(=O)Nc1ccn(-c2ccccc2)n1)C(=O)O (stereo unspecified)	0.55	-2.2
Cc1cc(=O)[nH]c2c(C)c(N)ccc12	0.02	0.26
CN1CCN(C(=O)c2ccc3c(c2)N(Cc2ccccc2)CCS3)CC1	0.38	-0.69
CC(=O)c1ccc(OCc2cc(C(=O)N(C)C(C)c3nccs3)no2)cc1 (stereo unspecified)	0.26	0.72
NC1=NC(=O)/C(=C/c2ccccc2OS(=O)(=O)c2ccc3ccccc3c2)S1	1.2	0
COc1ccc(-c2cc3ccccc3[nH]2)cc1	0.06	0.85
Cc1oc2c(C)c3oc(=O)c(CCC(=O)NCCCCCC(=O)O)c(C)c3cc2c1C	0.7	0.41
O=c1c(Cc2ccc(Cl)cc2Cl)c(O)ccn1CC(F)(F)F	1.4	0.01
CC(C)C[C@@H](CO)N1CCN(Cc2cccnc2)CCC1=O	1.7	0.05
O=C1CCCC(=O)N1c1ccc(Oc2ccc(Cl)cc2)cc1	0.1	-0.02
O=C(O)c1nc(NCc2ccccc2)ncc1Cl	0.54	0.35
Cc1[nH]n2c(=O)cc(C(C)C)nc2c1-c1ccccc1	1.6	0.34
N=c1c(C(=O)NC2CCCC2)cc2c(=O)n3ccccc3nc2n1CC1CCCO1 (stereo unspecified)	0.01	-0.29
COCc1nnc(NC(=O)c2ccc(NC(C)=O)cc2)s1	0.09	0.51
COc1cccc(NC(=O)C(Sc2nnc3ccccn23)c2ccccc2)c1 (stereo unspecified)	1.5	-0.44
COc1ccc(/C=N/NC(=O)C(=O)N2CCCC2)cc1	1.9	-1.4
CN(C)S(=O)(=O)c1cccc(NC(=O)c2ccc3c(c2)OCCO3)c1	2.1	-0.42
CC(=O)c1cccc(S(=O)(=O)Nc2ccc3nc(C)sc3c2)c1	0.25	0.23
CC(=O)Nc1ccc(Br)c(Cl)c1	0.85	-0.77
CC1(C)C(=O)Nc2ccccc2N1C(=O)COc1ncnc2ccccc12	0.82	-0.04
O=S1(=O)CCN=C2SC3=C(CCCC3)N21	0.69	0.5
CCOC(=O)C(C(C)C)C(N)Cc1ccc(F)cc1 (stereo unspecified)	0.08	0.02
O=C(Nc1ccc(N2CCOCC2)c(Cl)c1)c1ccccc1F	0.11	-1.1
O=C(/C=C/c1ccc(O)c([N+](=O)[O-])c1)c1ccc2ccccc2c1	0.77	-0.68
CCN1C(=O)[C@H]2[C@@H](c3ccc(C)cc3)N3C(=O)N(c4cccc(Cl)c4)C(=O)[C@@]3(CC)[C@H]2C1=O	0.43	-2.7
C[C@H](NC(=O)c1[nH]cnc1C(=O)Nc1ccc(Cl)cc1)C(=O)OC(C)(C)C	0.49	0.67
Cc1ccc(S(=O)(=O)N(C)C)cc1NC(=O)COC(=O)C1COc2ccccc2O1 (stereo unspecified)	1.4	0.28
CCc1ccc(S(=O)(=O)NC(=S)Nc2ccccc2)cc1	0.85	-0.01
COC(=O)Nc1nc2ccc(Sc3ccccc3)cc2[nH]1	0.75	0.32
Cc1ccnc(NC(=O)CCC(=O)N(CC(=O)NCc2ccc(F)cc2)Cc2ccccc2)c1	0.94	-0.19
CC(C)(C)N1CC(C(=O)Nc2cccc(Cl)c2Cl)CC1=O (stereo unspecified)	0.76	-1.6
CC(C)(C)c1ccc(-c2conc2N)cc1	0.71	0.42

Taken from above.
O=S1(=O)CCN=C2SC3=C(CCCC3)N21 in KCNQ2 pot shows 0.69
O=C(Nc1ccc(N2CCOCC2)c(Cl)c1)c1ccccc1F in KCNQ2 pot baseline shows -1.1
C[C@H](NC(=O)c1[nH]cnc1C(=O)Nc1ccc(Cl)cc1)C(=O)OC(C)(C)C in KCNQ2 pot shows 0.49

Further entries follow.
SMILES	KCNQ2 pot	KCNQ2 pot baseline
Cc1cccc(NC(=S)N/N=C/c2ccc3c(c2)OCO3)c1	0.12	-0.12
CC(=O)N1CCN(CC(=O)O)CC1	0.02	-0.63
COc1cc(OC)c(OC)cc1CNCc1ccc2c(c1)OCO2	1.5	1.2
CCOC(=O)C1(CCCc2ccccc2)CCN(Cc2cn(CC)nc2C)CC1	0.91	-0.33
CCc1[nH]nc2c1C(c1ccncc1)C(C#N)=C(N)O2 (stereo unspecified)	0.09	-2.4
COC(=O)C1=C(C)NC(=O)C1(NS(=O)(=O)c1ccc(NC(C)=O)cc1)C(F)(F)F (stereo unspecified)	0.02	-1.2
Cc1nc(-c2ccc(F)cc2)c(CC(=O)N2CCN(S(=O)(=O)c3ccc(F)cc3)CC2)s1	0.58	1.3
COc1cc(/C=N/NC(=O)/C(=C/c2ccccc2)CCO)ccc1O	0.02	0.65
CC(=O)c1ccc(S(=O)(=O)N2CCCCC2C(=O)O)cc1 (stereo unspecified)	0.29	-0.15
COc1ccc(OC)c(/C=N/NC(=O)CNC(=O)c2cccc3ccccc23)c1	0.33	-0.19
O=C(O)c1cccc2cccnc12	0.14	2.2
Cn1c(SCC(=O)NCCc2ccccc2)nnc1-c1ccncc1	1.2	-0.75
O=C(c1ccccc1)c1ccc(OCCn2cnc3ccccc3c2=O)cc1	0.19	0.28
Cc1ccc(Oc2ccc(N)cc2)cc1	0.55	0.29
COc1ccc(NC(=O)CN(C)C(=O)CNC(=O)c2ccc3c(c2)OCO3)cc1	2.7	-0.21

Rewritten with bars between the fields: entries from further up.
mol | KCNQ2 pot | KCNQ2 pot baseline
CC(=O)c1ccc(S(=O)(=O)N2CCCCC2C(=O)O)cc1 (stereo unspecified) | 0.29 | -0.15
COc1cc(/C=N/NC(=O)/C(=C/c2ccccc2)CCO)ccc1O | 0.02 | 0.65

(list continues)
SMILES	KCNQ2 pot	KCNQ2 pot baseline
COc1ccc(/C=N/NC(=O)CNC(=O)c2ccc(S(=O)(=O)N3CCOCC3)cc2)c(OC)c1	0.98	0.01
COC(=O)c1ccc(Cl)c(NC(=O)CN2CCC(C)CC2)c1	0.12	0.18
O=C1C2C3C=CC(C3)C2C(=O)N1Nc1ccccc1 (stereo unspecified)	0.14	0.33
COc1ccc(NC(=O)c2ccccn2)cc1S(=O)(=O)N1CCOCC1	2	-0.12
O=C(CS(=O)CC(=O)Nc1cnc2ccccc2c1)Nc1ccc(Cl)cc1 (stereo unspecified)	1.9	-0.09
O=C(NN1CC(=O)N(c2cc(Cl)cc(Cl)c2)CC1=O)c1sccc1Cl	0.19	-0.56
NC(=O)C1(N2CCCCC2)CCN(C(=S)NC2CCCC2)CC1	1.5	1.1
CCOC(=O)CSc1nnc(-c2cccnc2)n1Cc1ccccc1	0.79	0.7
Cc1ccc(C(=O)NNC(=O)CSc2nnc(C(C)C)n2C)cc1	0.86	-0.38
Cc1cc(C)c(S(=O)(=O)N(C)CC(=O)NCC2CCCO2)c(C)c1 (stereo unspecified)	0.5	-0.68
Cc1c(C)n2c(SCC(=O)N3CCC(C)CC3)nnc2[nH]c1=O	0.94	0.2
COc1ccc(CNC(=O)CCCCCNc2nc(=S)[nH]c3ccccc23)cc1	1.7	0.05
CCC(=O)N1CCc2cc(S(=O)(=O)CCC(=O)Nc3cccc(F)c3)ccc21	1.1	0.17
Cc1sc2ncnc(NCC3CCCO3)c2c1C (stereo unspecified)	1	-1.6
CC12CC(c3ccccc3O1)N(C(=O)c1ccco1)C(=O)N2c1ccccc1 (stereo unspecified)	0.5	-0.41
c1ccn2cc(CSC3=NCCS3)nc2c1	0.1	0.91
CCOC(=O)c1cnn(-c2cc(C)c3ccccc3n2)c1N	0.86	-1.2

Source: PubChem
